HNF4A DNA FP = change in binding of human HNF4 alpha to DNA; activity change, % at 10 µM; HNF4a-FITC DNA binding, fluorescence polarization, 1 h; P41235; hit rate 0.3% among 360,000; in the data active = activity change above about 30%, passing the limit was not always enough;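 also: controls were the assay level and a saturating level of protein; the project sought stronger binding though the title names inhibitors; some compounds called inactive have numbers as strong as hits; positive values seem to mean higher polarization but the record does not say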
Target sequence (P41235 whole entry, looked up): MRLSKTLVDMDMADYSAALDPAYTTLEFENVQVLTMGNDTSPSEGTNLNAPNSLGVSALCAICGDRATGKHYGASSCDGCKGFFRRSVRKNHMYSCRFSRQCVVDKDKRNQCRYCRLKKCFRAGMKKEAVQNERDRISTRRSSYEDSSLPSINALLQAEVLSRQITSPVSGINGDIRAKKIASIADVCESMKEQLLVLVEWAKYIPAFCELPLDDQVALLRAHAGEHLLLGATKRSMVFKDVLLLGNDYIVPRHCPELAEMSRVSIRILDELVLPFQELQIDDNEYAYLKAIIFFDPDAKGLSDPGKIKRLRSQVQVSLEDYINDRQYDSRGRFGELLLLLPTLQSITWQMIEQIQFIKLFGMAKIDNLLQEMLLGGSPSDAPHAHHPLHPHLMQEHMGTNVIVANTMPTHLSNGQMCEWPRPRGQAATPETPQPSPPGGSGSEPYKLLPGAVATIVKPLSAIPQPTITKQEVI
UCH37 DUB inh = human UCH37 deubiquitinating enzyme inhibition | Q9Y5K5 | purified proteasome/UCH37, Ub-AMC cleavage fluorescence | inhibition, % (test concentration not listed) | hit rate 0.33% among 330,000 | AID 588478;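 active = mean of two replicates above 20%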;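 also: 0% = compound-free wells with enzyme and 100% = wells lacking proteasome; stock transfer was 100 nL into about 20 µL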
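Material: Human UCH37 enzyme supplied as purified proteasome complex | Schedule: 30 min preincubation with enzyme, 25 min cleavage at room temperature | Detection: AMC fluorescence 355/460 nm | Measure: % inhibition of Ub-AMC cleavage fluorescence | Controls: Wells without proteasome as full block, compound-free enzyme plus substrate as uninhibited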
Beta2AR agonist = agonists of human beta-2 adrenergic receptor inducing internalization; P07550; Am2.2-beta2AR cells, FAP receptor internalization, flow cytometry; reference of the scale not given here; response, % (no concentration beside the values); hit rate 0.43% among 340,000; AID 504454;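 active = response above a set limit, near 3 SD of response in nonfluorescent compounds, cut at about 42% in these data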;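 also: stock transfer was 100 nL into about 11 µL; a reference agonist was the positive control; negative values mostly stem from fluorescent compounds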
Target sequence (P07550 whole entry, looked up): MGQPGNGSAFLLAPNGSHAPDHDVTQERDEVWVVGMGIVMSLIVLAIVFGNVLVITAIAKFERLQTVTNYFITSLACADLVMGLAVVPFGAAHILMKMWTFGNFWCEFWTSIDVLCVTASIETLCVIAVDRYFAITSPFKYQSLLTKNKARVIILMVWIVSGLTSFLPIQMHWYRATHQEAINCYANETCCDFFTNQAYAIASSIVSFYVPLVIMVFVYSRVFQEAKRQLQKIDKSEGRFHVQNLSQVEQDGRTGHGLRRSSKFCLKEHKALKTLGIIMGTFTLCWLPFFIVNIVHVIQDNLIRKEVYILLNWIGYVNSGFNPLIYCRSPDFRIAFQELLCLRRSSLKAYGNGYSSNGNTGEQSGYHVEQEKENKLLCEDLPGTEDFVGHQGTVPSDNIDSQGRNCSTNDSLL
FGF22 binding = FGF22 (human) thermal shift binding | recombinant FGF22 thermal shift, SYPRO orange fluorescence; percent of sucrose octasulfate shift, DMSO zero | calls only at 9.99 µM | hit rate 1.5% among 340,000 | AID 651658;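 active = melting point raised past a set limit in the mean and every replicate; three in four hits are not shown here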
Target sequence (Q9HCT0 whole entry, looked up): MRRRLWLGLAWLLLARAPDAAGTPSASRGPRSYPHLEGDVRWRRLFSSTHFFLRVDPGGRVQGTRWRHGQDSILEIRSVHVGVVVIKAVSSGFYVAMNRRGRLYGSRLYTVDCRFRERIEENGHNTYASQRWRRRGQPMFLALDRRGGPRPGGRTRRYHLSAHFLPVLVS
LANA-H2B inh = blocks KSHV LANA binding to histone H2A/H2B. Q9QR71. cell-free LANA-H2A/H2B peptide, fluorescence polarization. inhibition, % (no concentration beside the values). hit rate 0.6% among 320,000. AID 2629; in the data active = inhibition mostly above about 10%, no sharp cut-off; inactive = mostly below about 6.7%;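 also: stock transfer was 7.5 nL into about 10 µL; 0% = median of vehicle wells and 100% = median of positive control wells; one replicate is shown; the record names a cut of 25% in any replicate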
E coli growth = blocks Escherichia coli growth; OD600, 23 h; hits give low values; OD600 absorbance (test concentration not listed); hit rate 0.21% among 330,000; AID 1053175;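 active = OD600 absorbance below the run mean of sample wells minus 3.6 SD, in any replicate, cut at about 0.56 in these data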;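 also: stock transfer was 300 nL into about 60 µL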
ALR H2O2 inh = inhibitors of human sulfhydryl oxidase ALR; P55789; inhibition, % (test concentration not listed); hit rate 3.8% among 290,000; purified ALR, DTT oxidation, H2O2 HRP-luminol luminescence;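 active = mean and each replicate at 75% or more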;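 also: stock transfer was 7.5 nL into about 7.5 µL; 0% = neutral wells and 100% = wells with inactivated enzyme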
Numbers without * were called inactive; i = inactive; · = not tested or not shown.

ALR H2O2 inh | E coli growth | Beta2AR agonist | UCH37 DUB inh | FGF22 binding | HNF4A DNA FP | LANA-H2B inh | compound
· | 0.61 | 8 | -0.7 | i | 2.3 | -5.7 | O=C(Cn1ccccc1=O)c1cccs1
1 | 0.74 | 3 | 4.4 | i | -1.2 | 1.9 | O=C1CCCN1CCCNS(=O)(=O)c1ccc(F)cc1F
-5 | 0.7 | -5 | 1.1 | · | -0.1 | -0.4 | O=C(CC1(O)C(=O)Nc2ccccc21)c1cccnc1 (centres undefined)
1 | · | 4 | · | i | -1.9 | 1.1 | CN(C)CCOc1ccc(Cl)cc1C(C)(C)C
-81 | 0.66 | 4 | 1.5 | · | 3.1 | 0.8 | O=C(Nn1cnnc1)c1cc([N+](=O)[O-])cc([N+](=O)[O-])c1
-24 | · | -1 | -0.3 | i | 5.0 | -2.8 | NC1=NC[C@H](c2ccccc2)N1CCc1cccc(F)c1
-12 | · | -7 | · | · | -5.7 | 1.1 | COc1cccc(C2C=C(c3ccc(OC)cc3OC)Nc3nnnn32)c1 (centres undefined)
-1 | 0.66 | 0 | 4.6 | i | 1.3 | -0.7 | Cc1cc(NC(=O)c2ccc(F)cc2)n(C)n1
4 | 0.65 | 3 | -42 | · | 0.6 | -1.4 | COc1ccc(-n2cnc3c(sc4nccc(N(C)C)c43)c2=O)cc1
· | 0.66 | 4 | 0.9 | · | 1.8 | 0.1 | COc1cc(NC(=S)NCCCN2CCOCC2)cc(OC)c1
-26 | 0.71 | -4 | -0.6 | · | 16 | 3.2 | CCOc1ccc(-c2nnn(CC(=O)NCc3ccco3)n2)cc1
99* | 0.69 | 7 | 4.2 | i | -3.2 | -2.8 | Fc1ccc(-c2ccnc(=S)[nH]2)cc1
-5 | · | 7 | · | i | 2.9 | -10 | COc1cc(/C=N/NC(=O)c2ccoc2C)ccc1OCCN1CCCCC1
· | 0.68 | 1 | 2.5 | i | 2.0 | 3.7 | CC1CC(OCC(O)CN2CCCCC2C)CC(C)(C)C1 (centres undefined)
0 | · | 15 | · | i | 3.8 | -0.5 | COC(=O)Cn1c(Cc2ccccc2)nc2ccccc21
-3 | 0.72 | 3 | 0.9 | · | 0.4 | 2.7 | COc1ccc(C(=O)Nc2c3c(nn2-c2cccc(Cl)c2)CS(=O)C3)cc1 (centres undefined)
· | 0.68 | 1 | -0.1 | i | 1.5 | -2.4 | CSCCC(NS(=O)(=O)c1ccc(C)cc1)C(=O)N1CCN(C(C)=O)CC1 (centres undefined)
-1 | 0.64 | 5 | 4.1 | · | 0.0 | -6.9 | Cc1cc(NC(=O)c2cc(C(C)C)on2)no1
-7 | 0.66 | 0 | -1.5 | i | 1.7 | 2.2 | c1ccc2sc(NCC3CCCO3)nc2c1 (centres undefined)
1 | 0.67 | -8 | -17 | i | 0.8 | 0.1 | CCCC(C(=O)NCCC(C)C)N(Cc1ccccc1)C(=O)c1snc(C(N)=O)c1N (centres undefined)
-3 | 0.69 | -645 | 6.6 | · | 149 | -6.1 | O=C1S/C(=C/c2ccc(N3CCOCC3)o2)C(=O)N1Cc1c(F)cccc1Cl
-1 | · | -6 | · | i | -3.5 | -2.8 | O=C(OCc1ccccc1)C1=NNC2C(=O)N(c3ccc(Br)cc3)C(=O)C12 (centres undefined)
3 | 0.7 | -4 | 6.7 | · | 0.7 | -0.2 | CCOC(=O)CN1C(=O)C(O)=C(C(C)=O)C1c1ccc([N+](=O)[O-])cc1 (centres undefined)
3 | 0.7 | -22 | 0.4 | i | 3.0 | -2.1 | CC(=O)Nc1ccc(NC(=O)c2cccc(-c3cc4ccccc4oc3=O)c2)cc1
7 | 0.69 | 9 | 2.7 | i | 4.6 | -3.1 | O=C(CCc1nc2ccccc2c(=O)[nH]1)NNC(=O)c1ccccc1Cl
· | 0.67 | -14 | 0.8 | i | -2.5 | · | CN(C)CCCNC(=O)C[C@H]1C[C@H](C(=O)N2CCCCC2)[C@@]2(C)c3[nH]c4cc(CCC(=O)N(C)C)ccc4c3CCN2C1=O
-4 | 0.73 | -11 | 2.3 | i | 1.8 | 1.1 | COc1ccc(NS(=O)(=O)c2csc(C(=O)N3CCCC3)c2)c(OC)c1
· | 0.68 | 6 | 1.3 | i | -4.3 | · | COc1ccccc1Oc1ccc(Oc2ccccc2OC)cc1
· | 0.65 | 1 | 2.1 | i | 2.1 | 1.2 | CCOc1ccc(S(=O)(=O)N2CCCCC2)cc1NC(=O)Cc1ccsc1
· | 0.67 | -1 | 4.7 | i | -0.3 | 2.1 | COc1ccc(NC(=O)COc2ccc(C(=O)OCC(=O)N(C(C)C)C(C)C)cc2OC)cc1

2 compounds drawn at random from those above, as already listed:
ALR H2O2 inh | E coli growth | Beta2AR agonist | UCH37 DUB inh | FGF22 binding | HNF4A DNA FP | LANA-H2B inh | compound
-1 | · | -6 | · | i | -3.5 | -2.8 | O=C(OCc1ccccc1)C1=NNC2C(=O)N(c3ccc(Br)cc3)C(=O)C12 (centres undefined)
· | 0.67 | -14 | 0.8 | i | -2.5 | · | CN(C)CCCNC(=O)C[C@H]1C[C@H](C(=O)N2CCCCC2)[C@@]2(C)c3[nH]c4cc(CCC(=O)N(C)C)ccc4c3CCN2C1=O

Remaining list, next part:
ALR H2O2 inh | E coli growth | Beta2AR agonist | UCH37 DUB inh | FGF22 binding | HNF4A DNA FP | LANA-H2B inh | compound
1 | 0.72 | 10 | -1.3 | i | 3.1 | -1.0 | O=C(Nc1ccccc1)c1nc[nH]c1C(=O)NCCCCNC(=O)c1[nH]cnc1C(=O)Nc1ccccc1
0 | 0.67 | 9 | -2.8 | i | -2.2 | 3.2 | COc1ccc(/C=C2\SC(=O)N(CC(=O)Nc3ccc(F)cc3)C2=O)cc1O
· | 0.6 | -1 | 3.0 | i | -0.8 | -4.6 | COc1cc(OC)cc(C(=O)NCC2CCCN(Cc3ccc(SC)cc3)C2)c1 (centres undefined)
0 | · | -1 | · | i | 0.8 | 0.0 | Cc1ccc(C(=O)Nc2ccc3c(c2)C(=O)N(CC2CCCO2)C3=O)cc1 (centres undefined)
-13 | 0.7 | -2 | 5.8 | i | -1.4 | 2.7 | COc1ccc(NC(=S)NCc2cccs2)c(OC)c1
-15 | 0.67 | 1 | 0.5 | i | 0.8 | -1.7 | CC(C)(C)c1ccc(OCC(=O)O/N=C(\N)c2ccncc2)cc1
-14 | 0.83 | -4 | -1.8 | · | -2.4 | 0.3 | N#Cc1c(Oc2ccc3ccccc3c2)sc(C(=O)c2ccccc2)c1N
-6 | 0.72 | -4 | 4.1 | · | 2.2 | 3.5 | CC(C)CCNC(=O)CN(C(=O)Cn1nnc(-c2ccccc2F)n1)c1cccc2c1CCCC2
2 | 0.74 | 4 | -2.1 | i | -3.8 | 1.8 | C[C@H]1CN([C@@H](C)CO)C(=O)Cc2cc(NC(=O)CCC(F)(F)F)ccc2O[C@H]1CN(C)S(=O)(=O)c1ccc(F)cc1
1 | 0.66 | 1 | 4.2 | i | 2.1 | 5.3 | Cc1cccc(NC(=O)COC(=O)c2cc3ccccc3oc2=O)c1
-5 | 0.68 | 7 | 2.3 | i | 4.7 | -2.7 | CCOC(=O)c1c(S(=O)(=O)NCC(=O)Nc2cccc(C)c2C)c(C)n(C)c1C
-13 | 0.7 | -3 | -1.0 | i | 6.1 | 0.7 | Cc1cc(=O)n2nc(N3CCCC(C(=O)NCc4ccccc4C)C3)sc2n1 (centres undefined)
-14 | 0.66 | -1 | 2.2 | i | -0.5 | 3.1 | CCn1nnc(NC(=O)COc2ccc(C3CCCCC3)cc2)n1
8 | 0.68 | 1 | 6.1 | i | 4.7 | 2.2 | Cc1ccc(C)c(N2CCN(S(=O)(=O)c3c(C(=O)N4CCCCC4)c(C)n(C)c3C)CC2)c1
-1 | 0.67 | 1 | 3.2 | i | -2.1 | -4.1 | CCOc1cc(C(=O)OCC(=O)N(C)c2ccccc2)cc(OCC)c1OCC
-8 | 0.71 | 4 | 1.5 | i | -0.5 | 3.3 | CC1CC(C)CN(S(=O)(=O)c2ccc(C(=O)N(C)Cc3ccccc3)cc2)C1 (centres undefined)
-4 | 0.7 | -2 | 3.4 | i | 3.1 | 5.7 | CCC1CCCCN1C(=O)CSc1nc2c(c(=O)n(C)c(=O)n2C)n1C (centres undefined)
0 | 0.64 | -3 | 0.4 | i | 3.7 | -1.7 | CCc1cc2c(cc3c(=O)n(CC(=O)N4CCN(C)CC4)ncn32)s1
2 | 0.68 | -6 | -0.4 | i | 6.3 | -1.5 | COc1ccc(CNC(=O)c2coc(=O)c3ccccc23)c(OC)c1
-9 | 0.66 | -8 | 0.6 | · | 1.4 | 2.8 | COc1ccc(Cl)cc1-c1nc(SCC(=O)NCCN2C(=O)CSC2=O)n[nH]1

Copied from the listing for reference:
ALR H2O2 inh | E coli growth | Beta2AR agonist | UCH37 DUB inh | FGF22 binding | HNF4A DNA FP | LANA-H2B inh | compound
0 | 0.64 | -3 | 0.4 | i | 3.7 | -1.7 | CCc1cc2c(cc3c(=O)n(CC(=O)N4CCN(C)CC4)ncn32)s1
2 | 0.68 | -6 | -0.4 | i | 6.3 | -1.5 | COc1ccc(CNC(=O)c2coc(=O)c3ccccc23)c(OC)c1
-9 | 0.66 | -8 | 0.6 | · | 1.4 | 2.8 | COc1ccc(Cl)cc1-c1nc(SCC(=O)NCCN2C(=O)CSC2=O)n[nH]1

Other compounds
ALR H2O2 inh | E coli growth | Beta2AR agonist | UCH37 DUB inh | FGF22 binding | HNF4A DNA FP | LANA-H2B inh | compound
-4 | · | -12 | 0.6 | i | 0.4 | -3.1 | O=C(Nc1ccccc1)C1=C[C@@H](c2coc3ccccc3c2=O)C[C@@H](OCc2ccc(CO)cc2)O1
44 | · | 2 | · | i | -0.6 | -0.7 | COc1cccc(/C=N/Nc2ccccc2C(=O)O)c1O
-5 | 0.71 | -10 | -1.8 | · | 2.8 | -2.6 | Cc1csc(NC(=O)CSc2nnc(C)n2Cc2ccco2)n1
-33 | 0.74 | 4 | -64 | · | 3.3 | -1.5 | CCCNc1ncccc1C(N)=O
8 | 0.68 | 3 | 0.2 | i | 6.7 | -1.6 | Cc1ccc(-c2nc(C=Nc3ccccc3)c(O)o2)cc1
· | · | 11 | · | i | 0.1 | 0.8 | CCOC(=O)/C(=N\Nc1ccccc1Cl)N1CC(C)OC(C)C1 (centres undefined)
-4 | · | 1 | -2.7 | i | 2.1 | 2.9 | CCC(=O)c1cn(/C(=C\C(=O)OC(C)(C)C)CCC(OC)OC)cc1CC
12 | 0.69 | 2 | 0.5 | i | 5.3 | -4.4 | CCCNC(=O)Nc1nc(CC(=O)OCC)cs1
0 | 0.7 | 0 | 4.2 | i | 0.9 | 2.2 | COc1ccc(C(=O)NCC(=O)OCC(=O)NC23CC4CC(CC(C4)C2)C3)cc1
-19 | 0.7 | 8 | -7.8 | · | 2.2 | 1.4 | CN(C)N1C(N)=C(C#N)C(c2cccc3ccccc23)C2=C1CC(c1ccccc1)CC2=O (centres undefined)
· | 0.56 | -5 | 0.7 | i | -5.0 | -4.4 | Oc1ccccc1Oc1ncc(Br)c(Cl)n1
14 | 0.66 | -8 | 0.2 | i | 7.0 | 4.4 | COc1ccc(CNc2nc(-c3cccnc3)nn2C(=O)CC(C)C)cc1
· | 0.71 | -3 | 2.5 | i | 3.9 | -3.7 | CCN(CC(=O)Nc1ccc(OC)cc1)C(=O)Cc1ccc(OC)c(S(=O)(=O)N2CCOCC2)c1
98* | · | -2 | · | i | 2.3 | -1.8 | O=C1CN(c2ccccc2)C(=S)N1C(=O)c1ccccc1
30 | 0.69 | -12 | 0.2 | i | -0.8 | 2.9 | COC(=O)N1C(=O)[C@](c2ccsc2)(C(C)C)N1C(=O)OC
0 | · | 2 | · | · | -1.9 | 5.0 | CCCCC(CC)C(=O)Oc1ccc(O)c(C(C)(C)C)c1 (centres undefined)
10 | 0.7 | 94* | 5.0 | i | 2.1 | -2.9 | COc1cccc(/C=C/C(=O)c2cccc([N+](=O)[O-])c2)c1
· | 0.71 | -20 | 1.7 | · | 1.3 | 4.4 | O=C(Cc1ccc(-n2cccc2)cc1)N1CCc2ccccc21
-15 | 0.71 | 5 | -0.2 | i | -0.4 | -1.1 | Cc1ccccc1C(=O)N1CCC(C(=O)Nc2ccc3c(c2)OCO3)CC1

Screening data deposited in PubChem BioAssay by several laboratories.

These rows are one share of the data; count on the stated rates, not on these rows.
